p53 nuclei – nuclear p53 accumulation, HPV+ cells – imaging, p53-positive nuclei imaging, 24 h, 48 h (AID 1508601); p53-positive nuclei imaging, 48 h; stronger effect = higher value; some inactives read as strong as hits; p53-positive nuclei, normalised, % at 11 µM unless noted; hit rate 1% among 5,700;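 active = mean of two plates above 50% at 24 h or at 48 h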;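 also: HPV-positive HeLa cells with a fluorescent p53 stability reporter; 0% = vehicle and 100% = proteasome inhibitor control; doses worked out from stocks diluted about 900-fold with the highest of each compound shown; many of its hits are not listed in these tables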
p53 nuclei cells 24 h – further read-out of p53 nuclei, marked with its call; nuclei count, normalised, %; measured here: cell number at 24 h;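 100% = vehicle wells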
p53 nuclei p53 24 h – also measured in p53 nuclei; calls as there; p53-positive nuclei, normalised, %; measured here: p53 positive nuclei at 24 h;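 0% = vehicle and 100% = positive control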
p53 nuclei cells 48 h – second read-out of p53 nuclei, no call of its own (marks repeat the call); nuclei count, normalised, %; measured here: cell number at 48 h;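 100% = vehicle wells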
* hit, by the source's call; [ ] = another dose, or the depositor's remark. Only part of the results is shown. The share of hits here may be higher or lower than overall.

SMILES	p53 nuclei	p53 nuclei cells 24 h	p53 nuclei p53 24 h	p53 nuclei cells 48 h
O=C(O[C@H]1CN2CCC1CC2)N1CCc2ccccc2C1c1ccccc1 (stereo partly specified)	-0.2[3.7 µM]	111	-0.4	106
CC(C[N+](C)(C)C)OC(N)=O (stereo unspecified)	0.0[3.7 µM]	108	-0.2	108
Cc1cccc(N(C)C(=S)Oc2ccc3ccccc3c2)c1	-0.2[3.7 µM]	108	-0.3	104
CC(=O)Oc1cc(C(F)(F)F)ccc1C(=O)O	-0.1[3.7 µM]	108	-0.1	106
CCCn1c(=O)c2[nH]c(-c3ccc(OCC(=O)Nc4ccc(C#N)cc4)cc3)nc2n(CCC)c1=O	-0.2	110	0.0	100
COC(=O)C1=C(C)NC(C)=C(C(=O)OC2CCCN(Cc3ccccc3)C2)C1c1cccc([N+](=O)[O-])c1 (stereo unspecified)	-0.2[3.7 µM]	111	-0.5	103
COC(=O)CCSCc1ccc(-c2onc(C)c2NC(=O)OC(C)c2ccccc2Cl)cc1 (stereo unspecified)	0.1[3.7 µM]	113	0.9	110
O=CC(O)C(O)C(O)CO (stereo unspecified)	-0.1[3.7 µM]	100	-0.5	98
CCC(C)[C@H]1O[C@]2(CCC1C)CC1C[C@@H](CC=C(C)C(O[C@H]3CC(OC)C(O[C@H]4CC(OC)C(O)C(C)O4)C(C)O3)C(C)C=CC=C3CO[C@@H]4C(O)C(C)=C[C@H](C(=O)O1)[C@]34O)O2 (stereo partly specified)	-0.3[3.7 µM]	111	-0.4	101
C[C@]12CCC(O)CC1=CCC1C2CC[C@]2(C)C(n3cnc4ccccc43)=CCC12 (stereo partly specified)	1.4[3.7 µM]	99	7.8	99
CC(C)(C)OC(=O)NC1CCCCCC=CC2C[C@@]2(C(=O)NS(=O)(=O)C2CC2)NC(=O)C2CC(OC(=O)N3Cc4cccc(F)c4C3)CN2C1=O (stereo partly specified)	-0.5[3.7 µM]	108	-0.2	107
CNC(=O)c1cc(Oc2ccc(NC(=O)Nc3ccc(Cl)c(C(F)(F)F)c3)cc2)ccn1	-0.2[3.7 µM]	106	-0.3	105
CCCCCCCN(CC)CCCC(O)c1ccc(NS(C)(=O)=O)cc1 (stereo unspecified)	-0.1	109	0.0	109
COC1C=CO[C@@]2(C)Oc3c(C)c(O)c4c(O)c(c5c(nc6cc(C)ccn65)c4c3C2=O)NC(=O)C(C)=CC=CC(C)C(O)C(C)C(O)C(C)C(OC(C)=O)C1C (stereo partly specified)	-0.2	79	-0.2	85
COc1nccc(-c2ccc3nccc(-c4ccnnc4)c3c2)c1NS(=O)(=O)c1ccc(F)cc1F	8.0	52	1.4	36
CC1CC[C@H]2C(C)C(O)O[C@H]3O[C@@]4(C)CC[C@@H]1[C@]32OO4 (stereo partly specified)	0.0	97	-0.2	100
CCCCOc1nc(N)c2c(n1)N(Cc1cccc(CN3CCCC3)c1)CC(=O)N2	0.0	121	-0.1	115
Cc1c(C(N)=O)cc([N+](=O)[O-])cc1[N+](=O)[O-]	0.1[3.7 µM]	112	-0.2	103
NC(Cc1cc(I)c(Oc2ccc(O)c(I)c2)c(I)c1)C(=O)O (stereo unspecified)	0.2	109	-0.1	103
C=C[C@@]1(C)CC(OC(=O)CSC2C[C@H]3CC[C@@H](C2)N3C)[C@]2(C)C(C)CC[C@]3(CCC(=O)[C@H]32)C(C)C1O (stereo partly specified)	-0.1[3.7 µM]	105	-0.2	99
CCC(C)C(=O)OC1CCC=C2C=CC(C)C(CCC3CC(O)CC(=O)O3)[C@H]21 (stereo partly specified)	-0.2[3.7 µM]	121	-0.3	119
CCCNC1CCc2nc(N)sc2C1 (stereo unspecified)	-0.2	92	-0.1	100
COC(=O)C(CCSC)NC(=O)c1ccc(NCC(N)CS)cc1-c1ccccc1 (stereo unspecified)	0.0	92	-0.2	83
CC(C)n1nnc2cc(C(=O)O)ccc21	0.1	96	-0.1	97
C=C[C@@]1(C)CC(=O)[C@@]2(O)[C@@]3(C)C(O)CCC(C)(C)[C@@H]3C(O)C(OC(C)=O)[C@@]2(C)O1 (stereo partly specified)	0.0[3.7 µM]	102	-0.4	100
Cc1cc(C)c(N(Cc2ccccc2)S(=O)(=O)c2ccc(OCCNC(=O)c3cc4ccccc4o3)cc2)c(C(=O)NO)c1	0.0	108	-0.1	119
COc1cccc(-c2ccc(NC(=O)C3=C(C(=O)O)CCC3)c(F)c2)c1	0.1	97	0.1	80

Fetched by compound from the list above (2):
SMILES	p53 nuclei	p53 nuclei cells 24 h	p53 nuclei p53 24 h	p53 nuclei cells 48 h
CCCNC1CCc2nc(N)sc2C1 (stereo unspecified)	-0.2	92	-0.1	100
COc1nccc(-c2ccc3nccc(-c4ccnnc4)c3c2)c1NS(=O)(=O)c1ccc(F)cc1F	8.0	52	1.4	36

By substructure: the entries above containing a halogen.
SMILES	p53 nuclei	p53 nuclei cells 24 h	p53 nuclei p53 24 h	p53 nuclei cells 48 h
CC(=O)Oc1cc(C(F)(F)F)ccc1C(=O)O	-0.1[3.7 µM]	108	-0.1	106
COC(=O)CCSCc1ccc(-c2onc(C)c2NC(=O)OC(C)c2ccccc2Cl)cc1 (stereo unspecified)	0.1[3.7 µM]	113	0.9	110
CC(C)(C)OC(=O)NC1CCCCCC=CC2C[C@@]2(C(=O)NS(=O)(=O)C2CC2)NC(=O)C2CC(OC(=O)N3Cc4cccc(F)c4C3)CN2C1=O (stereo partly specified)	-0.5[3.7 µM]	108	-0.2	107
CNC(=O)c1cc(Oc2ccc(NC(=O)Nc3ccc(Cl)c(C(F)(F)F)c3)cc2)ccn1	-0.2[3.7 µM]	106	-0.3	105
COc1nccc(-c2ccc3nccc(-c4ccnnc4)c3c2)c1NS(=O)(=O)c1ccc(F)cc1F	8.0	52	1.4	36
NC(Cc1cc(I)c(Oc2ccc(O)c(I)c2)c(I)c1)C(=O)O (stereo unspecified)	0.2	109	-0.1	103
COc1cccc(-c2ccc(NC(=O)C3=C(C(=O)O)CCC3)c(F)c2)c1	0.1	97	0.1	80

Screens (PubChem BioAssay)
